# Sa helicase inh: blocks Staphylococcus aureus DNA helicase | purified S. aureus helicase, fluorescence unwinding assay; about half of the hits fall short of the stated cut | inhibition, %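 (tested at about 80 µM)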 | 120,000 compounds, 0.05% hits | AID 485395;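 active means both duplicates at 50% or more, or one of them with a favoured structure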;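 further: 0% = mean of negative control wells and 100% = mean of positive control wells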
# MgrA-DNA mod: alters Staphylococcus aureus MgrA binding to DNA. fluorescence polarization. inhibition, %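 (about 10 µg/mL by stock and volumes)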. 84,000 compounds, 0.13% hits;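 active means above 50% in either of two replicates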;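 further: 0% = protein plus DNA without compound and 100% = DNA alone without protein; higher means less MgrA bound to DNA so lower polarization; one replicate is shown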
# Numbers without * were called inactive; / = not tested or not shown; & = joins results of further samples. The list is partial (hit frequency here may not be typical).
Sa helicase inh	MgrA-DNA mod	structure
12.0	2.1	Cc1ccc(S(=O)(=O)c2nc(-c3ccco3)oc2SCc2ccccc2F)cc1
7.0	1.2	Nc1nc2ccccc2n1CCN1CCCCC1
10.0	0.2	O=S1(=O)CCC(N=Cc2cn(-c3ccccc3)nc2-c2ccccc2)C1 (stereo not drawn)
15.0	-0.1	Cc1cc2cc(CNC(=O)Cc3cccc4ccccc34)ccc2n1C
-2.0	0.9	CCOC(=O)C(C)Sc1nc(-c2ccc(OC)cc2)c(C#N)c(=O)[nH]1 (stereo not drawn)
-18.0	3.2	O=C(Cc1ccccc1)Nc1cccc(Cl)c1
-13.0	1.6	Cc1nc2c(sc3nc4c(c(-c5ccco5)c32)CCCC4)c(=O)o1
3.0	-3.5	CN(C)c1nc(N(C)C)nc(N2CC(=O)N(N)C2=N)n1
9.0	1.4	CCOC(=O)CSc1nc2c(c(C3CC=CCC3)c1C#N)CCC2 (stereo not drawn)
14.0	/	COc1ccc(NC(=O)c2ccc(OC)nc2OC)cc1
10.0	-0.9	O=C(CC1SC(N2N=C(c3ccccc3)CC2c2ccccc2)=NC1=O)Nc1ccccc1 (stereo not drawn)
1.0	0.4	COc1ccccc1NC(=O)N1CCN(c2cc(-c3ccccc3)nc3ncnn23)CC1
2.0	-0.4	Cc1cc(NC(=O)C(C)n2sc3ccccc3c2=O)ccc1Br (stereo not drawn)
-8.0	-3.6	Cc1ccc(C)c(/C(O)=C2\C(=O)C(=O)N(CCCn3ccnc3)C2c2cccnc2)c1 (stereo not drawn)
-10.0	/	CN(C(=O)COC(=O)c1ccc(Cl)nc1)c1ccccc1
7.0	-0.2	CCN(Cc1ccccc1)C(C)=O
-9.0	4.5	CCN(CC)c1ccc(C(=O)NCCN)cc1
0.0	-0.9	Cc1nc2ccc(S(=O)(=O)NCC(=O)NCc3ccccc3)cc2s1
8.0	/	CCC(O)(C#CCN1CCOCC1)CC
5.0	/	O=C1Nc2ccccc2C(O)(C(=O)N2CCC3(CC2)OCCO3)N1c1ccccc1 (stereo not drawn)
4.0	-5.6	Cn1c(CN2CCOCC2)nnc1Sc1c(-c2ccccc2)c2ccccc2[nH]c1=O
2.0	-0.3	Cc1ccc(C2C(C#N)=C(SCC(=O)N3c4ccccc4CC3C)NC3=C2C(=O)CCC3)o1 (stereo not drawn)
15.0	/	CC(=O)N(CC(=O)O)c1ccccc1
2.0	/	COC(=O)Cn1c(=O)c2c(n(Cc3ccccc3)c1=O)NCC2=O
-37.0	/	Cn1cnc2c(=O)oc3ccc(S(=O)(=O)N4CCCCC4c4cccnc4)cc3c21 (stereo not drawn)
-24.0	/	CC(C)(C#N)NC(=O)C1Cc2ccccc2CN1S(=O)(=O)c1ccc(F)cc1 (stereo not drawn)
9.0	/	Fc1ccc2nc(Nc3nc4ccccc4s3)sc2c1
9.0	/	O=C1NC(=O)/C(=C\c2cccs2)S1
-3.0	/	CCCc1ccc(S(=O)(=O)N2CCNCC2)cc1
/	-0.8	Cc1cc(C)nc(NS(=O)(=O)c2ccc(NC(=O)c3ccccc3C)cc2)n1
/	1.2	CCOC(=O)C1=C(C)N=c2s/c(=C\c3ccc(-c4ccc(C(=O)O)cc4)o3)c(=O)n2C1c1cccs1 (stereo not drawn)
-12.0	/	CC(OC(=O)c1cccc(S(C)(=O)=O)c1)C(=O)Nc1ccccc1C#N (stereo not drawn)
-14.0	1.3	CCOc1ccccc1N1Cc2ccccc2C1
1.0	0.2	Cc1ccc(S(=O)(=O)N(C)c2ccc3sc(C)nc3c2)cc1
10.0	1.5	Cc1ccc(C)c(OCC(=O)Nc2ccc(-c3nnc(-c4ccco4)o3)cc2)c1
4.0	1.7	Cc1ccc(NCc2nc3ccccc3n2C)c(C)c1
/	1.6	CN(C)C=NC(=S)c1ccc(-c2cccs2)s1
/	-0.8	CCCCOC(=O)CSc1nc(N)c(C#N)c(-c2ccc(OCC)cc2)c1C#N
11.0	16.7	CC(=O)NC1(c2ccccc2)CCN(CC(=O)Nc2c(C)n[nH]c2C)CC1
/	-1.4	COc1cc(NC(=O)/C=C/c2ccccc2Cl)c(OC)cc1Cl
6.0	/	O=C(Cc1ccc(-n2c(=O)[nH]c3ccsc3c2=O)cc1)Nc1ccccc1
2.0	-0.2	NCCNC12CC3CC(CC(C3)C1)C2
-8.0	/	Cc1cc(C)n(CC(=O)NN=C2CCCCCC2)n1
5.0	/	N#Cc1cn(Cc2ccccc2)nn1
/	-0.4	CC1=C(C(=O)OCC2CCCO2)C(c2coc3ccccc3c2=O)C2=C(CCCC2=O)N1 (stereo not drawn)
-2.0	-4.0	COC(=O)C1=C(c2ccccc2)Nc2ncnn2C1c1ccccc1F (stereo not drawn)
-22.0	1.0	CCOc1ccc2[nH]c(=O)c(CN(Cc3ccccc3)C(=O)N3CCOCC3)cc2c1
/	-1.2	O=S1(=O)CC(N2CCCC2)c2ccccc21 (stereo not drawn)
-4.0	2.5	N#C/C(=C/c1cn(CC(N)=O)c2ccccc12)c1ccc(F)cc1
10.0	/	CN(C(=O)Cn1c(=O)n(CCCC(=O)NCc2ccco2)c(=O)c2sccc21)C1CCCCC1
6.0	/	O=C(CN1C(=O)CCSc2ccccc21)NCc1ccccc1
5.0	-0.6	CC1(C)Oc2ccc(C(=O)Nc3ccc4c(c3)CCC4)cc2NC1=O
-35.0	0.6	Oc1ccccc1C=Nc1ccccc1N1CCCCC1
12.0	/	O=C1CCc2cc(S(=O)(=O)NC3CCCCCC3)cc3c2N1CCC3
0.0	2.3	CCCn1c(CCNC(=O)c2cccc(C)c2)nc2ccccc21
3.0	-3.7	CCn1c(CNC(=O)N2CCCCC2)nnc1SC
4.0	/	COc1ccccc1OCc1ccc(C(=O)NC(C)(C)C)o1
/	-1.6	O=S(=O)(Cc1ccccc1)CC(O)COc1ccc(OC(F)(F)F)cc1 (stereo not drawn)
/	0.1	FC(F)(F)c1cccc(CSc2ccc3nnc(Cl)n3n2)c1
3.0	-0.8	COc1cc2c(cc1OC)C(C)N(C(=O)c1cc3c(s1)-c1c(C)cccc1OC3)CC2 (stereo not drawn)

# Next section, overlapping the part above by 6 compounds.
Sa helicase inh	MgrA-DNA mod	structure
0.0	2.3	CCCn1c(CCNC(=O)c2cccc(C)c2)nc2ccccc21
3.0	-3.7	CCn1c(CNC(=O)N2CCCCC2)nnc1SC
4.0	/	COc1ccccc1OCc1ccc(C(=O)NC(C)(C)C)o1
/	-1.6	O=S(=O)(Cc1ccccc1)CC(O)COc1ccc(OC(F)(F)F)cc1 (stereo not drawn)
/	0.1	FC(F)(F)c1cccc(CSc2ccc3nnc(Cl)n3n2)c1
3.0	-0.8	COc1cc2c(cc1OC)C(C)N(C(=O)c1cc3c(s1)-c1c(C)cccc1OC3)CC2 (stereo not drawn)
8.0	-1.1	CC(=O)Nc1c(C(=O)O)oc2ccc(Br)cc12
/	4.5	CC(C)C(NS(=O)(=O)c1ccccc1)C(=O)O (stereo not drawn)
-7.0	/	Cc1cc(C)nc(NN=C2CCCC2)n1
13.0	0.6	C#CCSc1nc2ccccc2n1C(=O)c1ccc(S(=O)(=O)N2CCOCC2)cc1
14.0	/	O=C(NCC1CCCO1)c1cccc(-c2ccc(O)cc2)c1 (stereo not drawn)
21.0	/	COc1ccc(CCN2C(=O)CC(N3CCCC(C(F)(F)F)C3)C2=O)cc1 (stereo not drawn)
/	2.0	NC[C@H]1O[C@H](OC2[C@@H](N)C[C@@H](N)[C@H](O[C@H]3O[C@H](CO)[C@@H](O)[C@H](N)[C@H]3O)[C@H]2O)[C@H](O)[C@@H](O)[C@@H]1O (stereo partly drawn)
-8.0	/	CCn1c(CSc2nc3ccccc3s2)nnc1SCC(=O)c1c[nH]c2ccccc12
-15.0	-0.2	COc1ccc(CCC(=O)Nc2cccc(C)n2)cc1
6.0	2.1	CC(=O)Nc1ccc2c(c1)C(=O)N(C1CCCCC1)C2=O
2.0	/	Cc1c(Br)c(=O)[nH]c(=O)n1Cc1ccccc1
-5.0	/	Cn1c(SCC(=O)NCc2ccc(F)cc2)nc2ccccc21
1.0	1.5	CCCc1cc(=O)oc2cc(OC(C(=O)OCC)c3ccccc3)c(Cl)cc12 (stereo not drawn)
6.0	1.3	O=C(c1cc(-c2ccco2)on1)N(C1CCCCC1)C1CCCCC1
-1.0	1.3	FC(F)(F)c1ccc(NCCN2CCOCC2)nc1
10.0	-1.2	C=C(C)CC1N(c2ccccc2)C(=O)C2C(C(=O)O)C3C=CC21O3 (stereo not drawn)
-5.0	/	Cc1ccc2nc(COC(=O)c3cccnc3Cl)cc(=O)n2c1
-5.0	/	COc1ccc(/C=N/n2c(C)nc3ccccc3c2=O)cc1
1.0	-1.1	C=CCN1C(=O)CSC1=Nc1ccc(O)cc1
12.0	3.8	CC(C)c1ccc2c(c1)c1c3n2CCN(CC#N)C3CCC1 (stereo not drawn)
7.0	0.3	Oc1ccc2c(c1)C1CCCC1(N1CCOCC1)O2 (stereo not drawn)
-26.0	/	O=C(CCS(=O)(=O)c1cc2c(cc1Cl)NC(=O)CO2)Nc1cccc(Cl)c1
5.0	-0.5	Cn1c(CNc2ccccc2)cc(=O)n(C)c1=O
/	-2.4	CCc1ccc(NC(=O)c2c(OC)cccc2OC)cc1
0.0	3.2	COc1ccc(CCNC(=O)c2ccc3c(c2)OCO3)cc1
11.0	0.0	COC(=O)Oc1ccc2c(C)cc(=O)oc2c1
/	-1.9	c1ccc(CN(Cc2ccccc2)c2c3c(nc4ncnn24)CCC3)cc1
5.0	5.7	O=C(O)CCCc1ccc2ccc3cccc4ccc1c2c34
10.0	/	O=c1c2ccccc2nc2ccc(N3CCOCC3)nn12
5.0	/	O=C(Cn1c(=O)cnc2ccccc21)NC1CCCCC1
/	8.1	Oc1c(Cl)cc(Cl)c2cccnc12
-6.0	0.1	FC(F)(F)c1cccc(-c2nc3ccccc3[nH]2)c1
2.0	/	COCCOc1ccc(C(F)(F)F)cc1NC(=O)c1ccno1
16.0	/	S=c1cc(-c2ccccc2)n(Cc2ccco2)c2c1CCCC2
9.0	/	Cc1cc(/C=C/C(=O)N(C)Cc2ccco2)c(C)n1-c1ccnn1C(C)C
/	-1.9	O=C(c1ccco1)n1ccc(-c2cccs2)n1
/	-3.9	COC(=O)c1scc(Br)c1OC
11.0	1.2	COc1ccc(CCC(=O)Nc2ccc(-c3noc(CCc4ccccc4)n3)cc2)cc1
-15.0	/	CN(C)c1ccc(C(CNC(=O)c2ccccc2)N2CCCC2)cc1 (stereo not drawn)
6.0	/	COc1ccc(C(=O)CSc2nnc(Cc3cc(=O)[nH]c(=O)[nH]3)n2-c2cccc(OC)c2)cc1
9.0	0.2	CC1CCN(S(=O)(=O)c2cccc(C(=O)NC(C)C)c2)CC1
-2.0	-0.6	CC(C)C(NC(=O)C1CCCCC1)C(=O)N1CCN(c2ccccn2)CC1 (stereo not drawn)
5.0	-0.4	COc1ccc(C(=O)Nc2n[nH]c(C(F)(F)F)n2)cc1
0.0	-1.0	Cc1ccc(NC(=O)CCc2cn(Cc3ccc(Cl)cc3)c3ccccc23)c(C)c1
-18.0	/	COC(=O)C1=C(NC(=O)c2cc3ccccc3oc2=O)CCS1
15.0	/	COc1cccc(C2NS(=O)(=O)N=C3CCCCCN32)c1OC(F)F (stereo not drawn)
5.0	0.8	CC(C)c1ccc(NC(=O)c2ccc(NS(=O)(=O)c3cccs3)cc2)cc1
-9.0	/	CCOc1ccc(-c2nc(C#N)c(NCCOC)o2)cc1
9.0	-0.6	Cn1c(CNC(=O)c2ccc(F)cc2)cc2ccccc21
-25.0	/	Cc1cc2nc(CN3CCCc4ccccc43)cc(=O)n2o1
/	-2.9	COc1cc(C(=O)Nc2ccc3nc(NC(C)=O)sc3c2)cc(OC)c1OC
/	4.2	CN(C)N=Nc1nc[nH]c1C(N)=O
-4.0	2.5	Cc1ccc2cc(CN(Cc3cccnc3)C(=O)c3cccnc3)c(=O)[nH]c2c1
9.0	/	CCCn1c(N)c(N2CCOCC2)c(=O)n(CC(=O)NCc2ccc(F)cc2)c1=O
-3.0	/	CN(C(=O)CSc1nnc2n1CCCCC2)C1(C#N)CCCCC1
-3.0	/	COC(=O)c1ccc(CSc2nc3cc(Cl)ccc3n2Cc2ccccc2)o1
9.0	-0.5	CC1C(C(=O)Nc2ccccc2)CCCC1(C)C(=O)O (stereo not drawn)
-10.0	/	O=C(CSc1n[nH]c(-c2ccccc2)n1)NCC1COc2ccccc2O1 (stereo not drawn)
-9.0	-0.9	O=C(CCc1ccccc1)Nc1ccc(-c2nc3ccccc3o2)cc1
15.0	1.7	O=C(N/C(=C/c1ccc(Br)cc1)C(=O)N1CCCC1=O)c1ccco1

# Additional compounds.
Sa helicase inh	MgrA-DNA mod	structure
/	-0.4	COc1ccc(/C=N/OC(C)=O)c(OC)c1
9.0	4.0	CCCn1c(N2CCN(C(=O)Nc3ccc(OC)cc3)CC2)nc2ccccc21
18.0	4.0	C=CCOc1ccccc1C1NC(=O)NC(C)=C1C(=O)NCc1ccccc1 (stereo not drawn)
11.0	2.0	S=c1[nH]nc(-c2ccccc2)n1C1C=CCCC1 (stereo not drawn)
/	2.0	CC(NCC(O)C(F)(F)F)c1ccccc1 (stereo not drawn)
7.0	-2.1	COC(=O)C(=CC(C)C)C(=O)OC
1.0	/	CC(C)Cn1c(SCC(=O)Nc2ccc3c(c2)OCO3)nc(O)cc1=O
14.0&8.0	-1.1	O=C(O)CCC(=O)Nc1nc(-c2ccccc2)cs1

# 6 successive records from above, for reference:
Sa helicase inh	MgrA-DNA mod	structure
3.0	-3.5	CN(C)c1nc(N(C)C)nc(N2CC(=O)N(N)C2=N)n1
9.0	1.4	CCOC(=O)CSc1nc2c(c(C3CC=CCC3)c1C#N)CCC2 (stereo not drawn)
14.0	/	COc1ccc(NC(=O)c2ccc(OC)nc2OC)cc1
10.0	-0.9	O=C(CC1SC(N2N=C(c3ccccc3)CC2c2ccccc2)=NC1=O)Nc1ccccc1 (stereo not drawn)
1.0	0.4	COc1ccccc1NC(=O)N1CCN(c2cc(-c3ccccc3)nc3ncnn23)CC1
2.0	-0.4	Cc1cc(NC(=O)C(C)n2sc3ccccc3c2=O)ccc1Br (stereo not drawn)
